NPYLR7 agonist: agonists of mosquito NPYLR7 receptor, primary screen, cell-based, Aedes aegypti, calcium fluorescence, mosquito biting behavior; HEK293T NPYLR7/Galpha15, GCaMP6s calcium fluorescence; activation, % at 10 µM; 270,000 compounds, 0.15% hits; AID 1259423, 2018; in the data active = activation above about 40%;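 note: 0% = vehicle and 100% = reference agonist at the receptor; some compounds past the cut are filed as inactive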
NPYLR7 agonist max-min: also measured in NPYLR7 agonist; calls as there; activation, %; measured here: Max-Min RFU normalised activation; some inactives read as strong as hits;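 span of the calcium signal over five minutes; 0% = vehicle and 100% = native peptide agonist; compound fluorescence can raise it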
Starred values were filed as active, the others as inactive; & = joins results of further samples. The list is partial (hit frequency here may not be typical).

SMILES	NPYLR7 agonist	NPYLR7 agonist max-min
Cc1nn(-c2ccc(C(=O)N(C)Cc3ccsc3)cc2)c(C)c1Cl	6	6
Nc1cccc(-c2n[nH]c3c2CCCC3)c1	-4	-6
CCCCN1CCc2[nH]c(=S)[nH]c(=O)c2C1	-7	-14
CC1(C)CC1(C(=O)N1CC(c2cccnc2)C1)c1ccccc1F (centres undefined)	5	0
Cc1c(-c2ccccc2)oc2c(C(=O)NCc3ccnn3C)cccc2c1=O	-2	-3
O=C(Nc1ccc(O)c(-c2nc3ccccc3o2)c1)c1cccc2ccccc12	-7	-11
CC(C)Cn1c(N)cc(=O)[nH]c1=O	-5	-7
CCN(CC)c1ccc2cc(-c3nnc(Nc4ccc(Oc5ccc(Cl)c6ccccc56)c(Cl)c4)s3)c(=O)oc2c1	-6	-4
c1ccc(-c2cnnc(NC3CCOC3)n2)cc1 (centres undefined)	-4	-3
CC1=C(C(=O)OC(C)C)C(c2cccc(Cl)c2)C2=C(CCCC2=O)N1 (centres undefined)	-4	-7
CC1CC1C(=O)N1CSCC1C(=O)N(C)Cc1ccco1 (centres undefined)	3	1
Nc1ncc(Cl)cc1S(=O)(=O)Nc1cccc(C(=O)NC2CC2)c1	-8	151
O=C(c1ccccc1OC(F)(F)F)N1C[C@@H](CO)[C@@H]2Oc3ccc(Cl)cc3[C@@H]21	0	9
CCOC(=O)c1cc2c(=O)n3ccccc3nc2n(C)c1=NC(=O)c1ccco1	6	4
Cc1cc(-c2nnc(NC(=O)C3CCN(S(C)(=O)=O)CC3)o2)n(C)n1	1	1
CCOc1ccc(C2C(=C(O)c3ccc(C)cc3)C(=O)C(=O)N2CCN(C)C)cc1 (centres undefined)	1	1
CCNc1ccc(C(=O)OCC)cc1NS(=O)(=O)c1ccc(F)cc1	12	9
COc1ccc(CN2CCN(CC3CC4C=CC3C4)CC2)c(OC)c1OC (centres undefined)	1	9
O=C(c1csc(CSc2nnc(-c3cccnc3)n2-c2cccc(Cl)c2)n1)N1CCC(Cc2ccccc2)CC1	-7	-1
O=C(NNS(=O)(=O)c1cccc(Cl)c1)c1cc2c(s1)CCCCC2	1	0

Structural class: the compounds so far with an NH in an aromatic ring
SMILES	NPYLR7 agonist	NPYLR7 agonist max-min
Nc1cccc(-c2n[nH]c3c2CCCC3)c1	-4	-6
CCCCN1CCc2[nH]c(=S)[nH]c(=O)c2C1	-7	-14
CC(C)Cn1c(N)cc(=O)[nH]c1=O	-5	-7

The main list resumes, repeating the 3 entries before the break.
SMILES	NPYLR7 agonist	NPYLR7 agonist max-min
COc1ccc(CN2CCN(CC3CC4C=CC3C4)CC2)c(OC)c1OC (centres undefined)	1	9
O=C(c1csc(CSc2nnc(-c3cccnc3)n2-c2cccc(Cl)c2)n1)N1CCC(Cc2ccccc2)CC1	-7	-1
O=C(NNS(=O)(=O)c1cccc(Cl)c1)c1cc2c(s1)CCCCC2	1	0
O=C(NCCc1csc2nc(-c3ccc(F)cc3)nn12)c1ccc2ccccc2c1	7	6
O=C(Nc1cnc(-c2ccccc2)nc1)C1CCCC1	6	2
Cc1ccn2c(NC(=O)CC(C)CC(C)(C)C)c(-c3cccc(Cl)c3)nc2c1 (centres undefined)	-14	-14
O=C(CCCn1cnc2ccccc2c1=O)N1CC2C[C@@H]3CC1C[C@H](C2)C3	-20	-20
COc1ccccc1-c1nc(SCCN2CCCC2)c2c(=O)n(C)c(=O)n(C)c2n1	-2	-7
O=C(NCC(=O)N(Cc1ccccn1)CC1CCCO1)c1ccccc1 (centres undefined)	1	-1
O=C(NCC1CCCN(C(=O)CCn2cnnn2)C1)c1ccc(-c2ccccc2)cc1 (centres undefined)	4&11	-1&3
COc1ccc(N2CCN(c3cc(C(C)(C)C)nc(SCc4cccc(C(=O)NCC5CCCO5)c4)n3)CC2)cc1 (centres undefined)	-3	2
N#Cc1ccsc1NC(=O)C1CCOCC1	2	-2
O=C(Nc1ccccc1)c1ccc(CN2CCOc3ccccc32)cc1	0	0
CCC1CN(CC2CCCCO2)CCS1 (centres undefined)	7	0
COCCOC(=O)C1=C(C)NC2=C(C(=O)CCC2)C1c1ccsc1 (centres undefined)	-11	-14
FC(F)(F)c1ccc(-c2ccnc3[nH]ccc23)nc1	5	-1
CCCNC(=O)C1(C)CCCN(Cc2cccc(C(F)(F)F)c2)C1 (centres undefined)	-4	-3
Cc1cc(C)n(CCC(=O)NC2CCc3ccccc32)n1 (centres undefined)	1	0
NC(=NOC(=O)C1CCCCC1)c1ccccc1	-3	7
O=C1COc2cc(C(=O)OCC(=O)N3CCCC3c3cccs3)ccc2N1 (centres undefined)	0	-5
Nc1nc(N)nc(COC(=O)c2ccc(C3CCCCC3)cc2)n1	1	0
Cc1nn(C)c(C)c1C(C)C(=O)OCC(=O)N1CCCCCCC1 (centres undefined)	0	-1
CC1(C)Cc2c(sc(NC(=O)NCc3cccnc3)c2C#N)CO1	-14	-19

Single records (already shown).
O=C(Nc1cnc(-c2ccccc2)nc1)C1CCCC1 is listed as NPYLR7 agonist: 6; NPYLR7 agonist max-min: 2
O=C(NCC(=O)N(Cc1ccccn1)CC1CCCO1)c1ccccc1 (centres undefined) is listed as NPYLR7 agonist: 1; NPYLR7 agonist max-min: -1

Further compounds follow:
SMILES	NPYLR7 agonist	NPYLR7 agonist max-min
O=S(=O)(NCc1ccccc1)NC[C@H]1CCc2ccccc2O1	8	7
O=C(CCc1ccccc1)Nc1ccc2c(c1)N(S(=O)(=O)c1ccccc1)CCC2	-5	2
CCOC(=O)c1c(NC(=O)c2ccccc2C)sc(C(=O)Nc2ccccc2F)c1C	-6	-5
CC(=O)Nc1ccc2nc(CN3CCCC(C(=O)c4cccc(OC(C)C)c4)C3)ccc2c1 (centres undefined)	15	5
Cc1cccc(-c2[nH]c(C(C)(C)C)nc2-c2ccc3nccnc3c2)n1	-8	-6
Cc1ccc(O)c(CNC(C)C(C)n2cccn2)n1 (centres undefined)	2	-2
CCc1nc2ccc(C(=O)NCCc3c[nH]c4ccccc34)cn2c1N(C)C(=O)c1ccncc1	1	11
CN1C[C@@H]2CC[C@H](CC1=O)N2C(=O)CCc1nc2ccccc2[nH]c1=O	23	14
CCc1nc2c(OCc3ccc4c(c3)OCO4)cccn2c1N(C)C(=O)c1ccncc1	2	-7
COc1ccc(C(=O)C2CCCN(Cc3ccc4nonc4c3)C2)c(OC)c1 (centres undefined)	2	2
C=CCNC(=O)Cn1c(=O)c2c(OC)c(C)cnc2n(C)c1=O	0	-1
O=C(C1COC2(CCCCC2)N1C(=O)c1cc(F)cc(F)c1)N1CCOCC1 (centres undefined)	-3	7
Cc1ccc(N2CC(C)Cn3c2nc2c3c(=O)n(CC(=O)OCc3ccccc3)c(=O)n2C)cc1C (centres undefined)	6	9
O=C(NCc1ccc2c(c1)OCO2)c1cccnc1N1CCN(S(=O)(=O)c2ccc(C(F)(F)F)cc2)CC1	18	8
CN1CCCC1=NC(=S)c1ccccc1	16	10
Nc1ncc(Br)cc1S(=O)(=O)N1CCCCC1	1	0
CN1CCN(C(=O)c2ccc3oc(Cc4ccccc4)nc3c2)CC1c1ccccc1 (centres undefined)	6	0
CCCc1cc(NC(C)C)n2nc(C)c(-c3ccccc3)c2n1	3	7
CCN(CC)CC1CN(C(=O)C2CCCC2)CCO1 (centres undefined)	6	4
CC(C)CCOC(C)C(=O)NCc1ccccc1CN(C)C (centres undefined)	-1	-2

Given with values under each structure: part of the list above
Every second line gives: NPYLR7 agonist	NPYLR7 agonist max-min
- C=CCNC(=O)Cn1c(=O)c2c(OC)c(C)cnc2n(C)c1=O
 : 0	-1
- O=C(CCc1ccccc1)Nc1ccc2c(c1)N(S(=O)(=O)c1ccccc1)CCC2
 : -5	2
- CN1CCN(C(=O)c2ccc3oc(Cc4ccccc4)nc3c2)CC1c1ccccc1 (centres undefined)
 : 6	0
- Cc1cccc(-c2[nH]c(C(C)(C)C)nc2-c2ccc3nccnc3c2)n1
 : -8	-6
- O=S(=O)(NCc1ccccc1)NC[C@H]1CCc2ccccc2O1
 : 8	7
- CN1C[C@@H]2CC[C@H](CC1=O)N2C(=O)CCc1nc2ccccc2[nH]c1=O
 : 23	14
- CC(C)CCOC(C)C(=O)NCc1ccccc1CN(C)C (centres undefined)
 : -1	-2

(more compounds)
SMILES	NPYLR7 agonist	NPYLR7 agonist max-min
CCOC(=O)N1CCC(NC(=O)c2oc3c(F)cccc3c2C)CC1	0	-3
COc1ccc(NC(=O)c2ccc(C)c(S(=O)(=O)Nc3ccc(OC)cc3)c2)cc1	-6	-4
COCCN(CC(=O)N(CCc1c[nH]c2ccccc12)Cc1ccc(OC)c(OC)c1)C(=O)Nc1ccccc1F	-8	-2
CC(NC(=O)C1CCN(CCc2ccc(F)cc2)CC1)c1cccc2ccccc12 (centres undefined)	9	-1
CN1CCNC(=O)C12CCN(C(=O)c1ccc(-c3ccccc3)[nH]1)CC2	-6	7
CCN(CC)CCCC(C)N=C(C)c1c(O)n(C)c(=O)n(C)c1=O (centres undefined)	0	-2
CCOC(=O)c1sc2nc(C)cc(C)c2c1NC(=O)CCl	-2	-7
COCN1C(=O)NC2(CC(C)CC(C)(C)C2)C1=O (centres undefined)	-1	-4
COc1ccc(-c2ccc(=O)n(Cc3ccc(F)cc3)n2)cc1OC	6	-1
COc1cccc(OCc2cc(C(=O)N3CCN(c4ccccc4OC)CC3)no2)c1	-1	-3
Cc1cccc(C(=O)OC2CCCCC2)c1	2	5
COc1ccc(NC(=O)CCN(CC(C)C)c2nc(-c3ccc(F)cc3)nc3cc(Cl)ccc23)cc1	11	18
Cc1c(C(=O)N2CCCCC2)sc2nc(-c3cccc([N+](=O)[O-])c3)cn12	-1	-3
CCN(Cc1ccc(N(C)C)cc1)Cc1csc(C(C)(C)C)n1	7	4
O=c1c2cc([N+](=O)[O-])ccc2ncn1Cc1ccc([N+](=O)[O-])cc1	-3	-7
CN(C(=O)CS(=O)(=O)CCCc1ccccc1)c1ccnn1C	-1	7
O=C(O)c1cc2n(n1)CCN(C(=O)c1cccc(Cn3cccn3)c1)C2	-5	-9
Cc1nn(CC(C)C)c(C)c1N	-12	-19
O=C(Cn1cc(Br)ccc1=O)NC1CCCN(c2ncccn2)C1 (centres undefined)	-3	8
Clc1ccc2c(c1)C(Nc1ccc3nnnn3n1)CCS2 (centres undefined)	6	1
Cc1cc(NC(=O)c2ccc3ncsc3c2)n(C)n1	0	15
COC(=O)c1ccc(C(=O)NCc2cccc(-c3ncc(-c4cccc(OC)c4)[nH]3)c2)cc1	1	12
c1cn(CCOc2ccc(CN3CCC4(CCOCC4)CC3)cc2)cn1	3	1
CC(C)(C)C(=O)NCC1CCCN(Cc2ccc3c(c2)OCCO3)C1 (centres undefined)	-11	-12
CCCCNC(=O)CN1C(=O)NC2NC(=O)NC21 (centres undefined)	7	4
CC(C)(C)c1ccc(C(=O)NCc2ccco2)cc1	3	4
CCOC(=O)c1c(NC(=O)c2cccc(Cl)c2)sc(C(=O)Nc2ccc(OC)cc2)c1C	9	10
CC(C)CN1CC(C(=O)N2CCc3nc(N)sc3C2)CC1=O (centres undefined)	7	6
O=C1C(Nc2ccccc2)=C(N2CCCCC2)C(=O)c2ccccc21	2	6
CC(=O)C1=C(c2ccc(Br)cc2)N(C(C)=O)n2c(C)nnc2S1	1	-3
Cc1ccc(S(=O)(=O)N2CCOC23CCN(C(=O)Cc2ccc(Cl)cc2)CC3)cc1	10	3
Cc1oc(-c2ccc(Cl)cc2)nc1CN1CCC(C(=O)N2CCCCC2)CC1	15	2
Cn1cc(NC(=O)N2CCN(Cc3noc(C4CC4)n3)CC2)cn1	10	6
Clc1ccc(NCn2nnc3ccccc32)cc1	-2	-8
CCCNC(=O)Cn1cnc2ccccc2c1=O	-1	-2
Cc1ccc(N2C(=O)CC(N3CCN(c4ccc(C(F)(F)F)cc4[N+](=O)[O-])CC3)C2=O)cc1 (centres undefined)	-6	-8
CN1CCN(CC2CCOC2)CC12CCN(C(=O)COc1ccccc1)CC2 (centres undefined)	-7	-9
CCCC(NC(=O)NCc1ccc(Br)cc1)C(=O)O (centres undefined)	7	1
O=S(=O)(NCc1ccccc1)N1CCCCC1CCn1cccn1 (centres undefined)	7	5
O=c1nc(SCc2cccc3ccccc23)nc2ccccn12	7	6
CSCC[C@H](NC(=O)NCCCc1ccccc1)c1nc2ccccc2[nH]1	-2	-4
CCN(CC)C(=O)CN1C(=O)NC2(CCCCCCC2)C1=O	4	6
CCCCCc1ccc(C(=O)Nc2nnc(SCc3ccccc3C)s2)cc1	-1	13
CCOCC(=O)N1CCC2(CCC(=O)N(C)CC2)CC1	4	4
COc1ccc(OC)c(S(=O)(=O)NCc2cccnc2N(C)C)c1	3	-4
CC(=O)c1cc(CN2CCC(C(=O)Nc3ccc(-n4nc(C)cc4C)cc3)CC2)cs1	10	1
COCc1c(Br)c(C)nc(OCC(=O)N/N=C\c2ccc(C)o2)c1C#N	-6	-13
Cc1cccn2c(NC(C)(C)CC(C)(C)C)c(-c3cccc(OC(=O)c4cccc5ccccc45)c3)nc12	12	14
C=CCNC(=O)C(C1CCCC1)N1CCN(C(=O)c2ccccc2F)CC1 (centres undefined)	-10	-2
CCN(CC)C(=O)[C@@H]1C[C@@H](N)CN1Cc1c(C)noc1C	-1	-5
N#CC(=Cc1ccc(Cl)s1)c1ccccn1	1	6
Cc1c(C(=O)NC2CC2)sc(=O)n1Cc1ccc(S(=O)(=O)N(C)C)cc1	1	-2
COCCN(Cc1cccc(OC)c1)Cc1ccc(C(C)(C)O)o1	4	6
CCOc1ccc(Cl)cc1S(=O)(=O)N1CCN(c2cccc(C)c2C)CC1	-2	-8
C=CCn1c(SCCOc2ccccc2)nc2ccccc21	4	7
c1ccc(C(CCNC2CCSCC2)c2ccco2)cc1 (centres undefined)	-4	-17

Screening results as filed in PubChem BioAssay.
